# Assay outcomes: PubChem, National Center for Advancing Translational Sciences (NCATS)
# NPR1 antag: human Npr1 receptor antagonism | P16066 | HEK293 hNpr1 GloSensor cGMP, ANP-stimulated luminescence | Potency, µM (highest dose often 46.3 µM), for inactives: at the top dose activity change, negative = inhibition, usual class: inhibitors | hit rate 1.6% among 76,000; active = well fitted inhibition curve with a large enough effect; inconclusive = small, poorly fitted or top-dose-only effect; inactive = no such curve, though single readings can be large or run the other way;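 note: nearly all actives have a fitted effect of over 60% in size; nearly all hits also lower the signal before the agonist is added; a reference antagonist and vehicle were the controls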
# Target sequence (P16066 whole entry, looked up): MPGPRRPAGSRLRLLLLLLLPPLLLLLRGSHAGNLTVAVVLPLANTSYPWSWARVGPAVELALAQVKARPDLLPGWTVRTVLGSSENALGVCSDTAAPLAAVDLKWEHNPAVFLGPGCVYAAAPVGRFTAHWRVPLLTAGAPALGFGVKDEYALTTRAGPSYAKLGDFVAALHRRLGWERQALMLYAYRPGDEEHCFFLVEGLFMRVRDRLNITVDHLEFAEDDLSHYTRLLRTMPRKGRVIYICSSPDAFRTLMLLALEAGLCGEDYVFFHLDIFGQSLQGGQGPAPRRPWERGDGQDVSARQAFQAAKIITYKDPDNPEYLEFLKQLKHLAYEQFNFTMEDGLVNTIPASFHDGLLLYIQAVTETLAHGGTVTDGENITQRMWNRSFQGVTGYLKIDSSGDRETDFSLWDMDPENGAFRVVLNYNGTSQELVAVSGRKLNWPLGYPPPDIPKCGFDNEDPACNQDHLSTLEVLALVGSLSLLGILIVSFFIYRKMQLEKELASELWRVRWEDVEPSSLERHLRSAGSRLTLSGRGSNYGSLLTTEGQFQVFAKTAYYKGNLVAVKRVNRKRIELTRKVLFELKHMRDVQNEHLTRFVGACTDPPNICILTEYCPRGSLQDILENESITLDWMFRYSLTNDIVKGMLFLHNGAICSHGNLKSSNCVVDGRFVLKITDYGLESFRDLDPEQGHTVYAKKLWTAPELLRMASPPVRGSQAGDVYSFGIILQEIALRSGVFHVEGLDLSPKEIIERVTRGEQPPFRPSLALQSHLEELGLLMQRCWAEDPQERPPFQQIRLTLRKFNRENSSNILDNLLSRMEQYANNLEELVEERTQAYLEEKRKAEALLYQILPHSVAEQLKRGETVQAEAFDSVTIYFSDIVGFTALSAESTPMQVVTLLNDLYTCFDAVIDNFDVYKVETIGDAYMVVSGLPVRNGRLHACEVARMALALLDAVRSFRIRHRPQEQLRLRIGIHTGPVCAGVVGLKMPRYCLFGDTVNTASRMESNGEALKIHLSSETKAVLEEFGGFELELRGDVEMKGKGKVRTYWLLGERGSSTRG
#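 HEK293 cells stably expressing human Npr1 and cGMP GloSensor pGS-40F, loaded 2 h with 2% GloSensor reagent, given compound 30 min at room temperature. Luminescence read before and 20 min after 0.1 nM hNppA.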
# Starred values were filed as active, the others as inactive; ? = inconclusive; [ ] = another dose, or the depositor's remark. % is set by controls: 0 for no effect and ±100 for the full control effect; potency is the fitted concentration of half-maximal effect. This is a subset; the hit share may differ from the screen's.
molecule,NPR1 antag
Cc1noc(C)c1-c1cc2c(cc(C)n2CCN(C)C)c(-c2cccc(O)c2)n1,-12%[70.6 µM]
COc1ccc(-c2ccccc2)cc1N1C(=O)[C@@H]2C[C@H]1CN2C(=O)[C@@H](C)O,4%
O=C(Cc1c[nH]c2ncc(-c3ccccc3)cc12)NCc1ccncc1,2%[70.6 µM]
CC(C)C[C@@H]1N[C@H](C(=O)NCc2cccs2)Cc2cn(CC3CC3)c3cccc1c23,-18%[70.6 µM]
CN1CCC(N2CCN(C(=O)C3CCCCC3)CC2)C1=O (stereo unspecified),6%
CNC(=O)c1ccc(Cn2ccn3nc4c(c3c2=O)CCCC4)cc1,0%
O=C1C(N2CCN(S(=O)(=O)c3ccc(F)cc3F)CC2)CCN1Cc1ccccn1 (stereo unspecified),13%
FC(F)(F)c1ccc(CN2CCn3c(nnc3C3CCCNC3)C2)cc1 (stereo unspecified),0%
O=C1CCN(C(=O)Cn2c(=O)oc3ccccc32)CCCCCCN1,-9%
COc1cccc(Nc2cccc(CN3CCCC(C)(NC(C)=O)C3)c2)c1 (stereo unspecified),3%[70.6 µM]

# Continued, starting with the last 4 of the part before.
molecule,NPR1 antag
O=C1C(N2CCN(S(=O)(=O)c3ccc(F)cc3F)CC2)CCN1Cc1ccccn1 (stereo unspecified),13%
FC(F)(F)c1ccc(CN2CCn3c(nnc3C3CCCNC3)C2)cc1 (stereo unspecified),0%
O=C1CCN(C(=O)Cn2c(=O)oc3ccccc32)CCCCCCN1,-9%
COc1cccc(Nc2cccc(CN3CCCC(C)(NC(C)=O)C3)c2)c1 (stereo unspecified),3%[70.6 µM]
COc1cccc(CN2CCC3(CC2)NC(=O)c2ccccc2O3)c1,0%
COc1ccc(-c2nccc3c(=O)cc(N4CCN(C)CC4)oc23)cn1,-1%[70.6 µM]
OC[C@@H]1CNC[C@H]1C1CCN(Cc2ccc(F)c(F)c2)CC1,8%
COC(=O)c1ccc(CN2C(=O)[C@@H]3C[C@@H](O)CN3C3(CN(C4COC4)C3)C2=O)cc1,1%[70.6 µM]
Cc1ccc(C2=NC3(CCN(C(=O)c4cccc(F)c4)CC3)ON2)cc1,3%
COc1ccc2cc1Nc1ccc(cc1)C[C@H](NCc1ccncc1)C(=O)N(C)[C@H](C(=O)NCc1ccc(OC(F)(F)F)cc1)C2,-14%
Cc1cccc(NC(=O)Cn2c(N3CCc4ccccc4C3)nc(C)cc2=O)c1,-28%
Cc1ccc(N2CC(NC(=O)c3cccc(CCC(C)(C)O)c3)CC2=O)cc1 (stereo unspecified),5%
CCn1c2c(c(=O)n1Cc1ccccc1)CCN(C(=O)c1ccc(Oc3ccccc3)cc1)C2,11µM*
CC(C)c1ccc(NC(=O)CCC2CCN(C(=O)c3ccccc3)CC2)cc1,-26%
CC(C)c1nncn1C1CCN(S(=O)(=O)c2ccc(F)c(F)c2)CC1,-8%
CCOc1ccc(-c2cc3c(=O)n(CCNC(=O)Cc4ccccc4C)ccn3n2)cc1,-24%
CSc1ccc(CNC(=O)C2CCN(c3cc(C(F)(F)F)nc(C)n3)CC2)cc1,-4%
O=C(NCc1cccnc1)c1ccc(N2CCC(NCCCn3ncc4ccccc43)CC2)cc1,-2%
CCc1ccc(CN2CCCC(CNC(=O)c3cccc(OC)c3OC)C2)cc1 (stereo unspecified),-9%
CN1CCCCCCN(S(=O)(=O)c2cccs2)CCC1=O,5%
CC1=C[C@@H](CN2CCC(O)CC2)[C@H](C(C)C)C[C@H]1Cc1nnc(C)o1,8%[70.6 µM]
COC[C@@H]1CN(C(C)C)C[C@H]1c1nc(C2CC2)no1,2%
CN(Cc1ccc(N(C)C)cc1)Cc1ccccc1C(F)(F)F,12%[70.6 µM]
C=CCn1cc2c3c(cccc31)[C@H](CC(C)C)N[C@H](C(=O)NCCC)C2,1%[70.6 µM]
Cc1nc(-c2ccc(Cl)cc2)n(Cc2cccc(C(F)(F)F)c2)c(=O)c1CCO,-7%
COc1ccc(CN2C(=O)COC[C@H]2C(=O)NCc2ccc(Cl)cc2)cc1OC,-3%
CC(=O)Nc1ccc(C(=O)NC2CCN(c3cc(-c4ccccc4)[nH]n3)CC2)cc1,-12%
COc1cccc(CNC(=O)c2nnn3cc(C)[nH]c(=O)c23)c1,2%
COc1ccc(C(=O)NCC(=O)N2CCCCCNC(=O)CC2c2ccccc2)c(OC)c1 (stereo unspecified),5%
Cn1cnc(S(=O)(=O)N2CCC(Oc3ccc(-c4noc(C5CC5)n4)cc3)C2)c1 (stereo unspecified),-21%
Cc1nnc(-c2cc(-c3ccncc3)ccn2)n1CCN1CCOCC1,7%[70.6 µM]
Cc1ccc(CNC(=O)Cn2cccc2-c2nc(-c3ccc(F)cc3)no2)cc1,7%
COC1CCC12CCN(C(=O)c1cnn(C)c1)CC2 (stereo unspecified),0%
O=C(Nc1cccc(F)c1)N1Cc2[nH]cnc2C[C@H]1c1nc(-c2cccc([N+](=O)[O-])c2)no1,-19%
Clc1cc(NCCOc2ccccc2)n2nccc2n1,-30%[70.6 µM]
Cc1cccc(NC(=O)C2CC(=O)N(c3n[nH]c4cccc(F)c34)C2)c1C (stereo unspecified),4%
COc1ccc(O[C@H]2COCCN(Cc3nccn3C)C2)cc1,0%[70.6 µM]
COc1nccc(N2CCC(CC(=O)N3CCN(C4CCCCC4)CC3)CC2)n1,-5%
Cc1ccc(Cn2c(C3CCN(C(=O)c4c(F)cccc4F)CC3)n[nH]c2=O)cc1,-3%
CC(C)CCN1CCC2(CC1)Cc1ccccc1NC2=O,-1%[70.6 µM]
C#CCNC(=O)[C@H]1O[C@H](CCN2CCN(c3ccccc3)CC2)CC[C@@H]1O,9%[70.6 µM]
CCOc1ccc(C2Cn3nnc(-c4nc(-c5ccc(F)cc5)no4)c3CO2)cc1 (stereo unspecified),1%
CC1=C[C@@H](CN2CCCCC2)[C@H](C(C)C)C[C@H]1Cc1nnc(-c2cncn2C)o1,2%[70.6 µM]
O=C(C[C@@H]1O[C@H](CNC(=O)c2ccccc2)[C@@H](O)[C@H]1O)NC1CC1,4%[70.6 µM]
O=C1Nc2ccc(-c3ccc(F)cc3F)cc2C(=O)N2CC[C@H](NC(=O)N3CCOCC3)[C@@H]12,-1%
CN(Cc1ccc(F)cc1)Cc1cncs1,3%[70.6 µM]
NC(=O)[C@H](Cc1cccs1)NC(=O)[C@@H]1C[C@@H](NC(=O)c2cnccn2)CCN1C(=O)c1ccco1,3%
COC1CN(C2CCN(C(=O)NC(C)C)CC2)C12CCOCC2 (stereo unspecified),4%
CC(C)Cc1cc(Cn2cc(-c3cncnc3)nn2)no1,5%
C=CCOc1cccc(-c2nc(C(=O)N(C)Cc3ccccc3)cs2)c1,-12%
COC(=O)[C@H]1CN(C(C)=O)CCN1C(C)=O,4%[70.6 µM]
C[S+](=O)([O-])N1CCC(Cn2ccc3c(N4CCOCC4)nc(-c4ccc(F)cc4)cc32)CC1,-11%
COc1ccc(NC(=O)Cn2nc3n(c2=O)CCCCC3)cc1,-18%
COc1ccc(NC(=O)N[C@H]2CO[C@H]3[C@@H]2OC[C@H]3OC(=O)Nc2ccc(OC)cc2)cc1,-2%

# (list continues)
molecule,NPR1 antag
Cc1nc(CC(=O)N2CCC(Cc3nnc(CO)n3C)CC2)cs1,7%
CN(C)C(=O)c1ccc2c(c1)NC(C)(CCCCc1ccccc1)CO2 (stereo unspecified),?
O=C(C1CCCN(c2cnn(Cc3ccccc3)c(=O)c2)C1)N1CCCN(c2ncccn2)CC1 (stereo unspecified),-2%
Cc1ccc(C(=O)N2CCC[C@H]2c2nc(-c3ccccc3Cl)no2)cc1C,-5%
Cc1cc(CNC(=O)CC2C=CS(=O)(=O)C2)c2[nH]c(-c3ccccc3)c(C)c2c1 (stereo unspecified),-21%
COCCNC(=O)[C@@H]1C[C@H](Oc2ccccc2)CN1C(=O)CCc1c(C)nn(C)c1C,-1%
COc1c(C)cc(C)cc1CN1CCC2(CC1)C(C(=O)O)CC(=O)N2C (stereo unspecified),5%
CN1[C@@H](CCC(=O)N2CCOCC2)CNC(=O)[C@@H]2[C@H]1CCN2Cc1nc2ccccc2n1C,4%
CCN1c2cc(C(=O)Nc3ccc(OC)cc3OC)ccc2C(=O)N2CCCCC21 (stereo unspecified),2%
COCCOc1ccnc(-c2noc([C@@H]3CCCN3Cc3ccc(C(=O)O)cc3)n2)c1,1%[70.6 µM]
CC(C)NC(=O)c1ccccc1OCC1CCCN(C2CCCC2)C1 (stereo unspecified),-10%
O=C(C1Cn2cccc2C(=O)N1Cc1ccccc1)N1CCc2ccccc2C1 (stereo unspecified),-15%
CN1C(=O)[C@H]2CN(Cc3ccccc3Cl)C[C@H]2C1=O,4%
COc1cccc(CN2CCc3nc(N4CCN(C)CC4)[nH]c(=O)c3CC2)c1OC,4%
O=c1[nH]c(N2CCOCC2)nc2c1CCN(Cc1cc(F)cc(F)c1)CC2,2%
COc1ccc(Cn2c(C3CCN(C(=O)COc4cccc(C)c4)CC3)n[nH]c2=O)cc1,-2%
COc1ccc(CC(=O)NC2CCCN(c3cc(-c4ccc(Cl)cc4)[nH]n3)C2)cc1OC (stereo unspecified),11µM*
COc1ccc(-c2noc(-c3nc(C(C)C)no3)n2)cc1,-20%
CN1C(=O)[C@H]2CN(Cc3cn[nH]c3-c3ccc(F)cc3)C[C@H]2C1=O,-1%
COc1ccc(CNC(=O)N2CCC(N3CC4CC(C3)[C@H]3CCCC(=O)N3C4)CC2)cc1 (stereo partly specified),1%
C[C@@H]1C(=O)O[C@H]2[C@H]1CC[C@@]1(C)Cc3sc(NS(=O)(=O)c4ccc(Cl)cc4)nc3[C@@H](C)[C@H]21,-24%
CCN(CC)C(=O)c1onc(-c2ccc(OC)cc2)c1[C@H](C)O,-1%[70.6 µM]
O=C(c1ccco1)N1CC(Oc2ccccc2-c2nc(-c3ccccc3)no2)C1,-21%
Cc1ccc(CN2CCCc3nc(C)nc(-c4ccc(O)cc4)c3C2)cc1,-25%
CCc1cccc(NC(=O)Cn2c(N3CCc4ccccc4C3)nc(C)cc2=O)c1,?
COc1cccc(CC(=O)NC2CCCN(c3cc(-c4ccc(F)cc4)[nH]n3)C2)c1 (stereo unspecified),-12%
COc1cc2c(cc1C(=O)N1CCC3(CCCN(C)C3=O)C1)CCC2 (stereo unspecified),-3%
O=C(C1CCC1)N1CCC(c2noc(-c3cccnc3)n2)C1 (stereo unspecified),-1%
COc1ccc(-c2nccc3c(=O)cc(N4CCOCC4)oc23)cn1,6%[70.6 µM]
c1cc2c(cc1CN1CCCCCC1)CNCCO2,1%
COc1cccc(CCC(=O)NCCn2ccn3nc(-c4cccc(OC)c4)cc3c2=O)c1,-24%
CCOCC1(C)COc2ccc(C(=O)Nc3cccc(Cl)c3)cc2N1 (stereo unspecified),?
CN(C)CCN(C)[C@@H]1[C@H](O)[C@H](CO)O[C@@H]1CNC1CCOCC1,7%[70.6 µM]
CC(C)(C)C(=O)N[C@H]1CO[C@H]2[C@@H]1OC[C@@H]2Nc1nccc(-c2ccc(-c3ccccc3)cc2)n1,?
COc1cccc(C(=O)N2CCC(C(NC(=O)c3cccs3)C(=O)NCC(C)C)CC2)c1 (stereo unspecified),0%
Cc1ccc(C(=O)N2CCC(F)(c3nc(-c4ccncc4)no3)CC2)s1,?
CSc1cccc(NC(=O)CN2C(=O)NC3(CCS(=O)(=O)CC3)C2=O)c1,10%
COc1cccc(CN2CCCCCNC(=O)CC2c2ccccc2)c1OC (stereo unspecified),2%
Cc1nn(-c2ccccc2)c(Oc2ccccc2F)c1CCC(=O)NC(C)C,-13%
CC(C)(C)NC(=O)N1CC(n2cc(C(=O)NCc3ccccc3)nn2)C1,4%
O=c1n(Cc2ccc(F)c(F)c2)nc(C2CCNCC2)n1Cc1ccccc1,1%
Cc1nc(-c2ccc(F)cc2)n(CC(=O)Nc2ccc(C(C)C)cc2)c(=O)c1CCO,-6%
COc1ccc(NC(=O)N2CCCCC2c2n[nH]c(C)n2)cc1 (stereo unspecified),1%
O=C(c1cccs1)N1CCC(c2noc(-c3ccncc3)n2)C1 (stereo unspecified),6%
COCCN1C(=O)c2cccn2CC1CN (stereo unspecified),3%
C[C@@H](NC(=O)C1CC1)c1onc(-c2ccc(F)cc2)c1C(=O)O,2%[70.6 µM]
CCOc1cc(=O)n2c(c1C(=O)N(CC)Cc1ccncc1)CCCCC2,0%
CCOc1ncccc1C(=O)N1CC[C@@](O)(C2CCOCC2)[C@H](C)C1,2%
COC[C@@H]1CN(Cc2cnn(C)c2)C[C@H]1c1ccncc1,7%
CC(C)(CC(=O)O)CC(=O)N1Cc2[nH]cnc2C[C@H]1C(=O)N1CCCC1,2%[70.6 µM]

# Continued:
molecule,NPR1 antag
COCCNC(=O)N1CCc2nc(N3CCN(C)CC3)[nH]c(=O)c2CC1,-2%
COc1cc(Cl)cc2cc(C(=O)N3CC[C@H](CO)[C@H](O)C3)oc12,-3%
CN(C)C(=O)C1CN(C(=O)c2ccc(Cl)s2)CC12CCOCC2 (stereo unspecified),-3%
O=C(O)C1Cc2nc[nH]c2CN1C(=O)CCc1cn2ccccc2n1 (stereo unspecified),0%
